Screening data: PubChem BioAssay, several laboratories
FGF22 binding = binders of human FGF22 protein, primary screen, FGF22 synaptogenesis inhibitor project, biophysical, thermal shift, single point; 340,000 compounds, 1.5% hits; calls only at 9.99 µM; Fibroblast growth factor 22 (Homo sapiens), Q9HCT0; recombinant FGF22 thermal shift, SYPRO orange fluorescence; percent of sucrose octasulfate shift, DMSO zero;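 active means melting point raised past a set limit in the mean and every replicate; inconclusive means no clear call; three in four hits are not shown here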
Target sequence (Q9HCT0 whole entry, looked up): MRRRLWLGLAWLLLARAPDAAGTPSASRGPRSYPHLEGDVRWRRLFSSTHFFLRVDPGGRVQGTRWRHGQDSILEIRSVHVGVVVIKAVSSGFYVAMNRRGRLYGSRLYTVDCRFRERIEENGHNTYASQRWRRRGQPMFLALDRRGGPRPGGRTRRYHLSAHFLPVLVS
MLL AF4-AF9 inh = inhibitors of AF4 peptide binding to AF9, primary screen, biochemical, AlphaScreen, biotin-AF4 peptide, FLAG-AF9, single point | Protein AF-9 (Homo sapiens), P42568 | inhibition, % at 10 µM | 350,000 compounds, 0.47% hits | AID 651704, 2012;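 active means every replicate reaching a set inhibition limit, whatever the replicate mean, cut at about 25% in these data; inconclusive means mean inhibition reaches that limit but some replicates miss it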;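 further: 0% = plate neutral control median and 100% = total signal loss; the record names both 10 and 1 µM as test concentration; the first replicate is given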
Target sequence (P42568 whole entry, looked up): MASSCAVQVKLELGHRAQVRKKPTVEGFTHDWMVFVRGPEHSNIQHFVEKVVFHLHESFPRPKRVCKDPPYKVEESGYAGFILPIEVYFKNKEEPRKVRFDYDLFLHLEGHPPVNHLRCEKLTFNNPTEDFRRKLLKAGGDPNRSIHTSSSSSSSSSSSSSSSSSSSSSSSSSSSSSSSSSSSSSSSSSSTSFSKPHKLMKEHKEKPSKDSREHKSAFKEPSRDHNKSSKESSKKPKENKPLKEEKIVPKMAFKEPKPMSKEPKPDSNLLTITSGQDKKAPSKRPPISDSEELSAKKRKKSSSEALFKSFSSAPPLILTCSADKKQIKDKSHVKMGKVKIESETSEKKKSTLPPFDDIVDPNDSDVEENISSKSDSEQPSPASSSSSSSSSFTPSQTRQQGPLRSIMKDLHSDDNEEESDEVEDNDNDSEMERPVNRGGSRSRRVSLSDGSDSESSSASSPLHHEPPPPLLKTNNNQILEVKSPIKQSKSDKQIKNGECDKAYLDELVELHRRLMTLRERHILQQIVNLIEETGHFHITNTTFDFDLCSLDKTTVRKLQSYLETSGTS
rRNA inh HTS = reduced GFP signal of wild-type E. coli, primary screen, bacterial rRNA inhibitor project, GFP/RFP fluorescence, OD600, single point; E. coli WT GFP vs humanized-ribosome RFP mutants, 24 h; hits give low values; DMSO median 0, no signal -100; GFP signal change (wild-type ribosome), % (concentration not given with the values); 350,000 compounds, 1.6% hits; AID 720706, 2013;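 active means significant combined selectivity score with lowered wild-type GFP, culture density cut under 30%, mutant RFP and density less affected; inactive means any of these conditions unmet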; further: one replicate is shown; some compounds called inactive have numbers as strong as hits
E coli growth = E. coli growth inhibition, primary screen, OD600; 330,000 compounds, 0.21% hits; Escherichia coli growth, 23 h; hits give low values; OD600 absorbance (test concentration not listed);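 active means OD600 absorbance below the run mean of sample wells minus 3.6 SD, in any replicate, cut at about 0.56 in these data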;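 further: stock transfer was 300 nL into about 60 µL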
HNF4A DNA FP = change in binding of human HNF4A to DNA, primary screen, biochemical, fluorescence polarization, FITC-DNA; Hepatocyte nuclear factor 4-alpha (Homo sapiens), P41235; 1 h; activity change, % at 10 µM; 360,000 compounds, 0.3% hits; AID 1224865, 2016; in the data active means activity change above about 30%, passing the limit was not always enough;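 further: controls were the assay level and a saturating level of protein; the project sought stronger binding though the title names inhibitors; some compounds called inactive have numbers as strong as hits; positive values seem to mean higher polarization but the record does not say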
ALR inh = inhibitors of human ALR sulfhydryl oxidase, primary screen, biochemical, H2O2 detection, HRP-luminol luminescence, single point. purified ALR, DTT oxidation. inhibition, % (concentration not given with the values). 290,000 compounds, 3.8% hits. AID 485317, 2010;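 active means mean and each replicate at 75% or more; inconclusive means only one of the two met; inactive means neither met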;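 further: stock transfer was 7.5 nL into about 7.5 µL; 0% = neutral wells and 100% = wells with inactivated enzyme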
Target sequence (P55789 whole entry, looked up): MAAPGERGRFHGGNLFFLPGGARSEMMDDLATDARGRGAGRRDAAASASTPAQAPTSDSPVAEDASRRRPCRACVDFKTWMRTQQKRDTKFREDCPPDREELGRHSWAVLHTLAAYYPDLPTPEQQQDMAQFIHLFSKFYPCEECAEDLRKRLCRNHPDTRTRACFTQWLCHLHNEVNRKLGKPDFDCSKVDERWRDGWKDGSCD
Vif TR-FRET = inhibitors of Vif binding to APOBEC3G peptide, primary screen, biochemical, TR-FRET, GST-Vif 1-94, biotin-A3G peptide, dose response retest (AID 1117319) | Virion infectivity factor (Human immunodeficiency virus type 1 group M subtype B (isolate … | TR-FRET GST-Vif / biotin-A3G peptide binding; higher % means a stronger effect; test concentration not given here; strong numbers were not always called active | inhibition, %; hits with a dose series show IC50 in µM | 260,000 compounds, 0.57% hits;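 active means above the screen mean plus three standard deviations and confirmed in dose response; inconclusive means results disagree or hit not tested in dose response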;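 further: Vif residues 1-94 fused to GST binding biotinylated APOBEC3G peptide 110-148; 0% = full assay without inhibitor and 100% = GST in place of GST-Vif; retest series ran down from 100 µM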
rRNA inh HTS OD600 = further read-out of rRNA inh HTS, marked with its call; OD600 change, %; measured here: OD600 growth;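 optical density of the mix in the first replicate; 0 = DMSO median and -100 = no signal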
rRNA inh HTS RFP = also measured in rRNA inh HTS; calls as there; RFP signal change, %; measured here: RFP humanized mutant strains;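 first replicate; 0 = DMSO median and -100 = no signal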
* marks the source's active call; other numbers are inactive results; i = inactive; ? = inconclusive; nt = not tested or not shown; & = joins results of further samples.

item	SMILES	FGF22 binding	MLL AF4-AF9 inh	rRNA inh HTS	rRNA inh HTS OD600	rRNA inh HTS RFP	E coli growth	HNF4A DNA FP	ALR inh	Vif TR-FRET
1	Cc1ccc(S(=O)(=O)Nc2ccc3c(c2)C(=O)N([C@H](C)CO)C[C@@H](C)[C@H](CN(C)S(=O)(=O)c2ccc(C)cc2)O3)cc1	i	-1.0	1	-3	1.2	nt	nt	nt	nt
2	O=c1[nH]c(C2CCN(S(=O)(=O)c3ccccc3F)CC2)nc2c1nnn2Cc1ccc2c(c1)OCCO2	i	-1.9	-8	-27	2.0	0.73	-2.8	-2	1%
3	O=C(c1ccc(NC(=S)Nc2ccc(F)cc2F)cc1)N1CCOCC1	nt	-4.0	nt	nt	nt	0.66	-2.2	14	?
4	Cc1ccn(CC(=O)N2CCCC(N3CCN(c4cccc(Cl)c4)CC3)C2)n1 (configuration not stated)	i	0.1	-1	8	-1.9	0.69	-1.2	99*	3%
5	O=C1C=CC(n2cc(F)c(=O)[nH]c2=O)O1 (configuration not stated)	i	-3.8	9	4	-5.5	nt	-8.9	nt	22%
6	COc1ccc(CCn2c(N)c(C(=O)NCc3ccco3)c3nc4ccccc4nc32)cc1OC	nt	nt	nt	nt	nt	0.7	8.8	6	11%
7	COCCNC(=S)NNc1ccc(Cl)c(C(=O)O)c1	i	7.6	5	-1	-3.1	0.66	0.6	7	-11%
8	Cc1nn(Cc2ccccc2)c(Cl)c1/C=C/C(=O)OCC(=O)N(C)C1CCS(=O)(=O)C1 (configuration not stated)	i	-3.9	8	-7	0.9	0.64	-1.4	5	7%
9	COc1ccc(Br)cc1C(=O)Nc1ccc(O)cc1	i	8.3	-4	-5	-4.1	0.67	-3.3	99*	4%
10	CN(C)CC[n+]1ccc(C(=O)c2ccccc2)cc1	i	-3.1	10	11	0.5	0.62	-0.6	-16	nt
11	COc1ccc(S(=O)(=O)N(C)C[C@@H]2Oc3ccc(NC(=O)Cc4cn(C)c5ccccc45)cc3C(=O)N([C@@H](C)CO)C[C@@H]2C)cc1	i	1.3	1	8	1.7	nt	nt	nt	nt
12	C[C@H]1CN([C@@H](C)CO)C(=O)c2cccc(NC(=O)C3CCOCC3)c2O[C@@H]1CN(C)S(=O)(=O)c1cccs1	i	-2.4	0	14	-0.3	nt	nt	nt	nt
13	Cc1cc(N2CCN(C)CC2)nc2ccc(NC(=S)N3CCCCCC3)cc12	i	5.1	1	3	5.8	0.69	1.3	nt	-2%
14	COc1cccc(S(=O)(=O)N2CCCCN3[C@H](CO)[C@@H](c4ccc(C#CC5CC5)cc4)[C@H]3C2)c1	i	10	-52	-67	-3.4	nt	nt	nt	nt
15	Cn1c(=O)oc2cc(S(=O)(=O)Nc3ccc(C(=O)O)cc3)ccc21	i	0.2	6	13	-2.6	nt	-4.7	nt	24%
16	CC(=O)N/N=C(\C)c1ccc(Br)cc1Br	i	-1.4	3	-2	-4.8	nt	1.8	-9	5%
17	O=[N+]([O-])c1ccc(C=NN=Cc2ccc([N+](=O)[O-])cc2)cc1	i	8.6	14	9	-0.8	0.73	-0.2	nt	-13%
18	O/N=C/CCn1c(=S)sc2ccccc21	nt	nt	nt	nt	nt	nt	5.1	-12	-2%
19	Cc1ccccc1NC(=O)NC(N)=O	i	-2.0	9	9	1.4	0.68	0.5	31	-3%
20	COc1ccc(C(=O)N2CCC(NC(=O)C(Cc3ccccc3OC)NC(C)=O)CC2)cc1 (configuration not stated)	i	-3.6	3	13	-2.2	0.69	-0.8	nt	nt
21	COC(=O)Cn1c(=O)c2c(n(Cc3ccccc3)c1=O)N/C(=C/c1ccc(OC)cc1)C2=O	i	-1.8	-24	-12	23	0.65	0.8	18	8%
22	Cc1ccc(N2CC(C(=O)N3CCN(Cc4ccc5c(c4)OCO5)CC3)CC2=O)cc1 (configuration not stated)	i	1.8	2	1	0.3	0.67	1.5	0	nt
23	O=C(NCCN1CCC(n2c(=O)[nH]c3ccccc32)CC1)c1ccccc1Cl	i	1.9	26	21	2.3	nt	-1.9	nt	nt
24	CCc1ccccc1NC(=O)C1NC(=O)CC1c1ccccc1 (configuration not stated)	i	-4.7	-1	0	-3.5	0.73	4.8	-9	1%
25	O=C(NC(c1ccc(Cl)cc1)c1cnccn1)C1CCN(Cc2ccc(Cl)cc2)CC1 (configuration not stated)	i	3.9	4	2	2.9	nt	-1.7	nt	nt
26	Cc1coc2c1c(C)cc1oc(=O)c(CC(=O)NCCC(=O)O)c(C)c12	i	6.5	-23	-23	-0.8	0.64	1.6	nt	-4%
27	CCC(C)NS(=O)(=O)c1cccs1 (configuration not stated)	nt	nt	nt	nt	nt	0.71	-2.0	-3	1%
28	CCOC(=O)[C@H]1[C@H]2COc3ccc(Br)cc3[C@@H]2N2C(=O)N(c3ccc(F)cc3)C(=O)[C@@]12C	i	nt	7	2	0.5	nt	-2.3	-7	nt
29	COc1ccc(S(=O)(=O)Nc2cc(C)on2)cc1OC	nt	nt	nt	nt	nt	0.69	-2.3	-1	-15%
30	Cc1cn([C@H]2C[C@H](O)[C@@H](CNCc3cc(Cl)ccc3OCc3ccc(Cl)cc3)O2)c(=O)[nH]c1=O	i	4.1	-6	-17	1.6	nt	-3.7	nt	-2%
31	Cc1csc(SCC(=O)Nc2c(C)n(C)n(-c3ccccc3)c2=O)n1	nt	nt	nt	nt	nt	0.68	1.8	0	2%
32	c1cnc2ccc3c(c2c1)COCO3	i	-4.0	8	3	1.1	nt	-3.0	nt	nt
33	Cc1noc(C)c1CSc1nnc(-c2cc(Cl)ccc2Cl)n1N	nt	nt	nt	nt	nt	0.69	-3.3	-17	-7%
34	CCOC(=O)C1(c2ccccc2)CCCNC1=O (configuration not stated)	i	-4.9	21	21	1.1	nt	5.9	nt	nt
35	COc1ccc(C)cc1NC(=O)CN1CCN(CC(=O)Nc2ccccc2F)CC1	nt	nt	nt	nt	nt	0.79	-0.1	2	-10%&-4%
36	OCC1(c2cc(C(F)(F)F)n[nH]2)CCCCC1	nt	nt	nt	nt	nt	0.71	-4.1	-4	5%
37	Cc1ccc(NC(=O)c2cc(S(=O)(=O)N3CCCCC3)ccc2N2CCOCC2)cc1F	nt	nt	nt	nt	nt	0.71	1.0	-2	-9%
38	Cc1ccc(S(=O)(=O)N=S(CCO)CCO)cc1	nt	nt	nt	nt	nt	0.73	2.4	-16	5%
39	COc1ccc(C(=O)/C=C/C(=O)N(Cc2ccc3c(c2)OCO3)C(C(=O)NC2CCCCC2)c2ccncc2)c(O)c1 (configuration not stated)	i	8.8	-4	-2	-1.5	0.68	-0.4	-6	16%
40	Cc1cccc(NC(=O)CNC(=O)CN2C(=O)NC3(CCCCC3C)C2=O)c1C (configuration not stated)	i	8.4	11	13	1.6	0.73	1.2	-2	0%
41	O=C(NNC(=O)c1ccncc1)Nc1ccc([N+](=O)[O-])cc1	nt	nt	nt	nt	nt	nt	-1.4	37	?
42	COc1ccccc1N1CCN(C(=O)CSc2nnc(C)n2C2CC2)CC1	i	-2.1	3	7	1.2	0.64	-1.9	41	nt
43	COCCCN(C(=S)Nc1cc(C)cc(C)c1)C(C)c1ccncc1 (configuration not stated)	nt	nt	nt	nt	nt	0.7	1.2	-5	nt
44	O=C(CN1C(=O)c2ccccc2S1(=O)=O)Nc1ccon1	i	-0.8	9	7	-0.1	nt	2.4	0	nt
45	COc1cc(NC(=O)c2ccccc2)c(OC)cc1NC(=O)CN1CCCCC1	nt	nt	nt	nt	nt	0.71	-0.6	-19	2%
46	CCc1ccccc1S(=O)(=O)c1c(C)cc(C)nc1Cl	i	-0.8	-4	-6	2.5	0.68	1.5	0	-4%
47	COc1ccc(OC)c(NC(=O)C2CCN(S(=O)(=O)c3cccs3)CC2)c1	nt	nt	nt	nt	nt	0.71	-1.5	25	1%
48	CCN(Cc1cccs1)C(=O)CN1C(=O)NC2(CCCc3ccccc32)C1=O (configuration not stated)	i	2.3	-6	-10	-2.8	0.71	-1.1	nt	5%
49	Cc1ccc(NC(=O)c2cc(=O)n(Cc3ccccc3)c(=O)[nH]2)cc1C	i	-1.2	13	14	2.0	0.66	-1.7	-2	nt
50	O=C(NCc1ccccc1Cl)C1=CC=CN2CCS(=O)(=O)N=C12	i	-6.8	8	12	-0.9	0.67	1.3	-2	-7%
51	CC1=C(C(=O)N(C)C)CC(CC(=O)NC(c2ccccc2)c2ccccc2)C(=O)N1Cc1ccccc1 (configuration not stated)	i	-2.6	-2	5	3.5	nt	-5.3	nt	nt
52	c1nc2sc3c(c2c2nnnn12)CCC3	nt	nt	nt	nt	nt	0.7	-1.2	3	?
53	C[C@@H]1CN([C@@H](C)CO)C(=O)Cc2cc(NC(=O)Cn3cnnn3)ccc2O[C@@H]1CN(C)C(=O)Nc1ccc2c(c1)OCO2	i	1.0	2	12	-2.9	nt	nt	nt	nt
54	Nc1ccc(C(=O)N/N=C\c2ccc(OC(=O)c3ccccc3Cl)cc2)cc1	nt	-15	21	24	2.8	nt	3.2	-3	nt
55	Cc1cc(C)nc(Oc2ccc(Br)cc2Br)n1	i	-9.9	-19	-19	-2.0	0.65	4.8	1	nt
56	Cc1ccc2[nH]c(=O)c(CN(C(=O)c3cccc([N+](=O)[O-])c3)C(C)C)cc2c1	i	2.8	2	-2	-7.2	0.63	5.3	-2	-1%
57	CCCCn1c(N)c(N(CC(C)C)C(=O)CSCc2cccc(C)c2)c(=O)[nH]c1=O	i	-9.4	8	6	-2.4	0.62	-1.0	-1	6%
58	c1ccn2cc(C34CC5CC(CC(C5)C3)C4)nc2c1	i	2.1	-7	-9	-12	0.63	2.9	7	4%

Only part of the results is shown; the hit share may differ from the screen's.
